# Tg IFNy HTS: T. gondii growth inhibition under IFN-gamma; Toxoplasma gondii growth in IFN-gamma-treated host cells; active compounds read low; reference of the scale not given here; activity change, negative = inhibition, %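 (about 20 µM by stock and volumes)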; 3.8% of 69,000 active; AID 1259416;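 active means below -70%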;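 further: host cells are HeLa cells infected with Toxoplasma gondii; parasite growth read as luciferase light; one replicate is shown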
# Active calls of the source: *; i = inactive. A portion of the library; the hit share may differ from the screen's.
SMILES,Tg IFNy HTS
COc1ccc2c3c([nH]c2c1)[C@H](CO)N(C(=O)Nc1ccc(F)cc1)CC31CN(C(=O)Nc2c(C)noc2C)C1,26
Fc1ccc(C(c2ccccc2)(c2ccccc2F)n2ccnc2)cc1 (stereo not drawn),-71*
Cc1cc2c(cc1C(=O)N1CCCC3(CNC(=O)O3)C1)OCCO2 (stereo not drawn),-39
COc1cccc(C(=O)Nc2ccc3c(c2)C(=O)N(C)[C@@H]2CC[C@@H](CC(=O)N[C@@H](C)c4ccccc4)O[C@H]2CO3)c1,-8
COc1ccc(N2CC3(CCN(C(=O)C4CC4)C3)CC2=O)cc1 (stereo not drawn),-3
Cc1nn2c(C)c(C(=O)N3CCOCC3)nnc2c1-c1ccc(F)cc1,22
CC(=O)NC1(c2ccccc2)CCN(Cc2ccc3c(c2)CC(C)(C)O3)CC1,1
O=C1CN(C(=O)CSc2nc(-c3ccc(Cl)cc3)cs2)c2ccccc2N1,-21
O=C([C@H]1[C@H](CO)[C@H]2Cn3c(ccc(C4=CCCCC4)c3=O)[C@@H]1N2Cc1nccs1)N1CCCCC1,-4
CNc1nnc(C(F)(F)C(F)(F)C(F)(F)F)s1,10
O=C(NC(=S)Nc1ncn[nH]1)c1ccccc1,-31
C[C@H]1CN([C@@H](C)CO)C(=O)CCCn2cc(nn2)CO[C@H]1CN(C)C(=O)Nc1ccc2c(c1)OCO2,i
c1coc(CN(CCN2CCOCC2)Cc2ccncc2)c1,3
C[C@H]1CN([C@@H](C)CO)C(=O)c2cc(C3=CCCCC3)cnc2O[C@H]1CN(C)S(=O)(=O)c1cn(C)cn1,29
CC(C)(C)NC(=O)CCN1CCOCC1,12
COc1cccc(-c2nc3c(s2)CN(S(=O)(=O)c2ccc(OC)c(OC)c2)CC3)c1,-20
Cc1oc(C2CCN(S(=O)(=O)c3ccccc3)CC2)nc1C(=O)N1CCCC1,-20
CCOC(=O)N1CCC2(CC1)OC(=O)C(C)=C2C(=O)NC1CCCC1,56
Cc1ccn2c(C(=O)N(C)Cc3nc(C4CC4)no3)c(C)nc2c1,-4
Cc1nsc(NC(=O)N(C)Cc2cnc(-c3ccccc3)s2)n1,-28

# Rewritten with tabs: part of the list above.
Compound	Tg IFNy HTS
O=C1CN(C(=O)CSc2nc(-c3ccc(Cl)cc3)cs2)c2ccccc2N1	-21
O=C([C@H]1[C@H](CO)[C@H]2Cn3c(ccc(C4=CCCCC4)c3=O)[C@@H]1N2Cc1nccs1)N1CCCCC1	-4
CNc1nnc(C(F)(F)C(F)(F)C(F)(F)F)s1	10
O=C(NC(=S)Nc1ncn[nH]1)c1ccccc1	-31
C[C@H]1CN([C@@H](C)CO)C(=O)CCCn2cc(nn2)CO[C@H]1CN(C)C(=O)Nc1ccc2c(c1)OCO2	i

# Quoted from the listing:
# Cc1cc2c(cc1C(=O)N1CCCC3(CNC(=O)O3)C1)OCCO2 (stereo not drawn) in Tg IFNy HTS = -39
# Cc1oc(C2CCN(S(=O)(=O)c3ccccc3)CC2)nc1C(=O)N1CCCC1 in Tg IFNy HTS = -20
# COc1cccc(C(=O)Nc2ccc3c(c2)C(=O)N(C)[C@@H]2CC[C@@H](CC(=O)N[C@@H](C)c4ccccc4)O[C@H]2CO3)c1 in Tg IFNy HTS = -8
# CC(=O)NC1(c2ccccc2)CCN(Cc2ccc3c(c2)CC(C)(C)O3)CC1 in Tg IFNy HTS = 1
# CCOC(=O)N1CCC2(CC1)OC(=O)C(C)=C2C(=O)NC1CCCC1 in Tg IFNy HTS = 56

# More structures:
SMILES,Tg IFNy HTS
COCC1CN(C(=O)c2cccn2C)Cc2cnn(C)c21 (stereo not drawn),24
COC(=O)c1sccc1NC(=O)CC1C(=O)NCCN1S(=O)(=O)c1cccs1 (stereo not drawn),-3
CCOC(=O)C(C)NC(=O)c1cc(-c2cccnc2)n[nH]1 (stereo not drawn),12
CN(CC(=O)N1CCC2(CCCO2)CC1)Cc1cccnc1,8
COc1ccc(S(=O)(=O)N(C)C[C@@H]2Oc3ccc(NC(=O)Cc4cn(C)c5ccccc45)cc3C(=O)N([C@@H](C)CO)C[C@@H]2C)cc1,-3
Cc1oc(-c2cccc(Cl)c2)nc1CSc1nc2c(c(=O)[nH]1)CN(Cc1ccccc1)CC2,3
Cc1cc(C(=O)N2CCc3c(COCC(C)C)cncc3C2)no1,0
Cc1cc(C)cc(CCC(=O)N2CCN(S(=O)(=O)N3CCCC3)CC2)c1,6
CCCN(C)C[C@@H]1Oc2cc(/C=C/c3ccccc3)ccc2S(=O)(=O)N([C@@H](C)CO)C[C@H]1C,-91*
CS(=O)(=O)N1CCC2(CC1)CC(C(=O)N1CCOCC1)c1ccccc12 (stereo not drawn),65
Cc1cccc(COCC23CCCOC2CCN(Cc2ccoc2)C3)n1 (stereo not drawn),i
CCCCNC(=O)c1nc(Nc2ccccc2)c2ccccc2n1,-44
CN(Cc1ccccc1)C(=O)[C@H]1C[C@@H](c2ccco2)NS(=O)(=O)N1C,-36
C1=CC[C@H]2CN(Cc3cnc(CC4CCCC4)[nH]3)C[C@H]2C1,-2
Cc1ccc(NC(=O)c2nnn(Cc3nc(-c4ccccc4)oc3C)c2C)c(Br)c1,47
CN1CC(=O)N(c2ccccc2)CC12CCN(C(=O)N1CCCC1)C2 (stereo not drawn),-1
CCOC(=O)CCNC(=O)Nc1ccc(-c2nc(-c3ccccc3)co2)cc1,110
COc1ccc(-c2nc(Cn3cnc4onc(C)c4c3=O)c(C)o2)cc1OC,19
CCN1C(=O)CCc2cc(NC(=O)Cc3ccc(Cl)cc3)ccc21,-6
COC(=O)c1[nH]ncc1CN(C)Cc1ccc(-n2cccn2)cc1,-4
O=C(Nc1ccc(OC(F)(F)F)cc1)OCc1nccn1Cc1ccc(Cl)cc1,-13
Cc1ccc(CNC(=O)C(C)OC(=O)c2ccco2)cc1 (stereo not drawn),-4
CCC1=N[C@@]2(CC[C@@H]3CN(c4ncccn4)C[C@H]32)C(=O)N1CC,-1
Cn1cc(CN(Cc2ccc(Cl)cc2F)C2CC2)cn1,1
O=C(CN1C(=O)CNC1=O)N1CCC(c2[nH]ncc2-c2cccc(F)c2)CC1,59
O=C(N1CCOCC1)N1CCC2(C1)c1ccccc1S(=O)(=O)N2Cc1ccc(F)cc1 (stereo not drawn),3
COCCNC(=O)C[C@H]1CC[C@@H]2[C@H](COC[C@@H](O)CN2Cc2ccc(Cl)c(Cl)c2)O1,-8
CCN(C)Cc1n[nH]c(=O)n1-c1cc(F)ccc1C,5
CCS(=O)(=O)N(C)C[C@@H]1N[C@H](CO)[C@@H]1c1ccc(C#CC(C)C)cc1,-16
Cc1cc(C)n(CCC2CC(=O)Nc3n[nH]c(-c4cccs4)c32)n1 (stereo not drawn),-6
Cc1nc(CC(=O)NCC2OCCc3ccccc32)cs1 (stereo not drawn),-9
COc1cccc(-c2ccc([C@@H]3[C@H]4CN(C(=O)c5cccnc5)CC(=O)N4[C@H]3CO)cc2)c1,-43
Cc1cc(=O)n(CC(=O)N2C[C@@H]3C4CCC(CC4)[C@@H]3C2)nc1C,19
Cc1oc(C2CCN(S(=O)(=O)c3ccc(Cl)cc3)CC2)nc1C(=O)N1CCCC1,-70
CN(C)c1c(F)cc(C(=O)NC(=O)Nc2nnc(C(F)(F)F)s2)cc1F,-16
COCCN1CCC(C(=O)N2CC=C(c3ccccc3)CC2)C1 (stereo not drawn),33
Cc1ccc(N2CCCC2=O)cc1S(=O)(=O)Nc1ccc(N2CCCC2=O)cc1,-91*
Cn1cc(N2CC3(CCN(C(=O)c4cccn4C)C3)CC2=O)cn1 (stereo not drawn),4
CC(C)Oc1cncc(C(=O)N2CCN(C)CC2)c1,6
Cc1nc(C)c(C(=O)N2CCC(CC(=O)NC(C)c3ccccc3)CC2)s1 (stereo not drawn),-10
COc1ccc(N2CCN(Cc3ccc(-c4ccn[nH]4)o3)C(C)C2)cc1 (stereo not drawn),5
CCCNC(=O)N1CC2(C1)[C@@H](c1ccccc1)[C@@H](CO)N2Cc1ccc(Cl)cc1,-5
O=C(Cn1ncc2c(N3CCOCC3)ncnc21)Nc1ccc(F)cc1Cl,196
C(=C\c1cccc(-n2cnnc2)c1)/c1ccccc1,-17
CCCNC(=O)Nc1ccc2c(c1)OC[C@H](C)N(C(=O)C1CCOCC1)C[C@H](C)[C@H](OC)CN(C)C2=O,-39
COc1cccc(NS(=O)(=O)c2cc3c4c(c2)CCN4C(=O)CC3)c1,-30
CCC(=O)N1CC2(C1)[C@H](c1ccc(-c3ccc(F)cc3)cc1)[C@@H](CO)N2C(C)=O,-43
NC(=S)c1ncc(C(F)(F)F)cc1Cl,50
COCCN1C2(CCN(Cc3ccncc3)C2)c2ccccc2S1(=O)=O (stereo not drawn),-43
CCN(CC)CC(=O)Nc1ccc(-c2ccc(NC(=O)CN(CC)CC)cc2)cc1,-59
Cc1oc(C2CCN(C(=O)c3ccsc3)CC2)nc1C(=O)N1CCSCC1,-2
COc1ccc([C@H]2C/C=C\C[C@H](c3ccc4c(c3)OCO4)NC(=O)[C@H](c3ccccc3)CC(=O)N2)c(OC)c1,30
C[C@H]1CN([C@@H](C)CO)C(=O)c2c(c3ccccc3n2C)-c2ccccc2CO[C@@H]1CN(C)S(=O)(=O)c1ccc([N+](=O)[O-])cc1,-68
Cc1ccc(NC(=O)c2c(O)c3cccnc3n(-c3ccc(F)cc3)c2=O)c(C)c1,60
O=C(c1ccccn1)N1CC2(C1)[C@H](c1ccccc1)[C@H](CO)N2Cc1ccc(F)cc1,111
C[C@H]1CN([C@@H](C)CO)C(=O)CCCn2nncc2CO[C@H]1CN(C)CC1CCCCC1,28
COc1ccccc1-c1cc(CNC(=O)c2cnn3c2CCCC3)on1,29
Cc1nc(N2CCCC(NC(=O)CCc3ccno3)C2)ncc1-c1ccno1 (stereo not drawn),75
COCC#Cc1ccc([C@@H]2[C@H]3CN(Cc4cccnc4)CCCCN3[C@H]2CO)cc1,17
CC(=O)N1[C@H](CN(CC(C)C)C(=O)c2ccccn2)[C@@H](c2ccccc2)[C@@H]1CO,14

# Entries listed so far that contain an aryl thioether with sulfur outside any ring:
SMILES,Tg IFNy HTS
O=C1CN(C(=O)CSc2nc(-c3ccc(Cl)cc3)cs2)c2ccccc2N1,-21
Cc1oc(-c2cccc(Cl)c2)nc1CSc1nc2c(c(=O)[nH]1)CN(Cc1ccccc1)CC2,3

# (next part)
SMILES,Tg IFNy HTS
Cc1cc2cc(C(=O)NCCCn3nccc3C3CC3)ccc2o1,0
COc1ccc(S(=O)(=O)N2CCC(C(=O)NCCc3csc(-c4ccccc4)n3)CC2)cc1,21
CCCC(C)c1nnc(NC(=O)c2ccccc2-c2ncn[nH]2)s1 (stereo not drawn),-2
CCOc1ccc(-c2nc(CSc3nc4c(=O)[nH]c(C)nc4n3C)c(C)o2)cc1OC,-2
C[C@H]1CCCCO[C@H](CN(C)Cc2ccc(C(F)(F)F)cc2)[C@@H](C)CN([C@@H](C)CO)C(=O)c2cc(NC(=O)Nc3cccc4ccccc34)ccc2O1,i
Cc1ccccc1-c1nc(CN2CCN(C(=O)c3ccc[nH]3)CC2)c(C)o1,-6
NC(=O)C1CCN(C(=O)c2cncc(NS(=O)(=O)c3ccc(F)cc3)c2)CC1,39
Cc1cnc(C)c(N2CCN(Cc3ccc4c(C)cc(=O)oc4c3)CC2)n1,-1
Cc1ccc(-c2nc(Cn3nnc(C(=O)Nc4ccccc4C)c3C)c(C)o2)cc1,-88*
COc1ccc(Cc2noc(CN(C)CC3(N4CCOCC4)CCCCC3)n2)cc1OC,22
CO[C@H](CN(C)C(=O)c1ccccc1F)[C@@H](C)CN([C@@H](C)CO)S(=O)(=O)c1ccc(F)cc1,1
CC(C)c1ccc(N(CCc2ccccn2)S(=O)(=O)c2ccc(Cl)cc2)cc1,-58
CO[C@@H](CN(C)Cc1ccc2c(c1)OCO2)[C@H](C)CN(C(=O)Nc1ccc(F)cc1)[C@H](C)CO,42
COc1ccc2c3c([nH]c2c1)[C@H](CO)N(Cc1cccc(F)c1)CC31CCN(C(C)=O)CC1,212
O=C(C1CCN(c2cncnc2N2CCCCC2)CC1)N1CCC(N2CCCCC2)CC1,-30
COc1ccccc1S(=O)(=O)N[C@H]1C=C[C@@H](CC(=O)N2CCOCC2)O[C@H]1CO,-7
COC(=O)c1sccc1NC(=S)Nc1ccccc1N1CCOCC1,19
O=C(Cc1ccccc1)N1CC[C@H]2CN(Cc3cccnc3)S(=O)(=O)[C@@H]2CC1,103
COc1ccc2c3c(n(C)c2c1)[C@@H](CO)N(CC1CC1)CC31CCN(S(=O)(=O)c2cccs2)CC1,-37
Cn1cc(Br)c(C(=O)NC(=S)Nc2ccc(S(N)(=O)=O)cc2)n1,3

# Brought forward from above: 5 compounds, then new ones.
SMILES,Tg IFNy HTS
COc1ccccc1S(=O)(=O)N[C@H]1C=C[C@@H](CC(=O)N2CCOCC2)O[C@H]1CO,-7
COC(=O)c1sccc1NC(=S)Nc1ccccc1N1CCOCC1,19
O=C(Cc1ccccc1)N1CC[C@H]2CN(Cc3cccnc3)S(=O)(=O)[C@@H]2CC1,103
COc1ccc2c3c(n(C)c2c1)[C@@H](CO)N(CC1CC1)CC31CCN(S(=O)(=O)c2cccs2)CC1,-37
Cn1cc(Br)c(C(=O)NC(=S)Nc2ccc(S(N)(=O)=O)cc2)n1,3
CN1CCCCN2[C@H](CO)[C@H](c3ccc(-c4ccc(F)cc4)cc3)[C@H]2C1,-22
Cc1cnc(C(=O)N2CCC3(CC2)C(=O)NCCN3CC(C)C)cn1,-32
COC(=O)c1cc(C)nc2c1c(=O)n(Cc1nc(-c3cccc(Cl)c3)oc1C)c(=O)n2C,-22
O=C(Nc1ccc(-c2nc(-c3ccccc3)co2)cc1)C1CCCCC1,-40
CCCC(=O)Nc1ccc2c(c1)OC[C@@H](C)N(C(=O)c1cccnc1)C[C@H](C)[C@@H](OC)CN(C)C2=O,-9
Cc1cnc(N2CC[C@@H]3[C@H]2CCN3c2nncs2)nc1,186
Cc1cccc(-c2nnc(-c3nc(NCc4ccco4)c4ccccc4n3)o2)c1,-24
COc1ccc(NC(=O)N2C[C@@H](O)COC[C@@H]3O[C@@H](CC(=O)N4CCCCC4)CC[C@H]32)cc1,-5
CCOC(=O)C1CN(S(=O)(=O)c2ccc(C)cc2)c2ccccc2O1 (stereo not drawn),43
Cc1c(-c2cc(C(=O)Nc3cccc(-c4cccc(F)c4)c3)no2)cnn1C,-3
CC(C)c1nc(CN2CCc3onc(-c4cccc(F)c4)c3C2)no1,-5
CC(C)COc1ccccc1CN(C)C(=O)c1cccc(N2CCNC2=O)c1,-6
